Mtb bLac sens: beta-lactam sensitization of Mtb H37Rv; hit rate 0.27% among 330,000; inhibition, % at 25 µM; AID 434955; M. tuberculosis H37Rv growth with meropenem, percent inhibition; hits of this screen are not shown here;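 active = about 74% or more and at least 40 points above the plate without the antibiotic, then above 30% in a dose series; inconclusive = first-round hits that could not be retested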;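 also: growth measured after seven days incubation then overnight dye step; 0% = bacteria only wells and 100% = bacteria with antibiotic; twin plates without the antibiotic show which effects depend on it; some results filed as inactive read as strong as hits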
Starred values were filed as active, the others as inactive; ? = inconclusive. This is a subset, so the mix of outcomes need not match the whole.

SMILES,Mtb bLac sens
CCOC(=O)c1c(NC(=O)C2Cc3ccccc3C(=O)O2)sc2c1CCCC2 (stereo not given),-5
Cc1nnc(SCC(=O)NC2CCCCC2)n1N,-2
c1ccc(OCC2CO2)cc1 (stereo not given),-2
N#CCCN(Cc1cccnc1)S(=O)(=O)c1ccc2ccccc2c1,3
O=C(COC(=O)c1cccs1)Nc1ccc(F)c(F)c1,1
COC(=O)[C@]1(Cc2ccccc2)N[C@H](CN(C)C(=O)NC(C)C)[C@@H]2C(=O)N(Cc3ccccc3)C(=O)[C@@H]21,3
COc1ccc(OC)c(C(C)NC(=O)C(C)n2cc([N+](=O)[O-])cn2)c1 (stereo not given),-1
O=C(NCCCl)Nc1ccccc1NS(=O)(=O)c1cccs1,-4
CCCc1cc(=O)[nH]c(SCC(=O)N2CCc3ccccc32)n1,-2
Cc1ccc(S(=O)(=O)N(C)c2ccc(OCC(=O)OCc3ccc(C#N)cc3)cc2)cc1,94
CC1CCCCN1C(=O)COC(=O)c1cc(-c2cccs2)nn1-c1ccccc1 (stereo not given),28
CSCCC(NC(=O)c1cccc(C)c1)C(=O)NNC(=O)c1cccs1 (stereo not given),-5
COc1ccc2cc(C3(C)NC(=O)N(CC(=O)N4CCCCC4)C3=O)ccc2c1 (stereo not given),-8
C[C@H](CO)N1C[C@H](C)[C@@H](CN(C)C(=O)Nc2ccccc2)Oc2ccc(NC(=O)Cc3ccccc3)cc2C1=O,6
COc1cc(C(=O)N2CCN(C(=O)C3CCCO3)CC2)cc(OC)c1OC (stereo not given),1
CCOC(=O)C1CCCN(C(=O)c2ccc(C)c(S(=O)(=O)N3CCCCC3)c2)C1 (stereo not given),-11
CN/C(=C/[N+](=O)[O-])NCCSCc1csc(CN(C)C)n1,-5
Cc1ccc(NC(=S)NCC(O)c2ccccc2)c(C)c1 (stereo not given),9
O=C(CCc1nc2sc3c(c2c(=O)[nH]1)CCCC3)NCC(=O)Nc1ccccc1Br,-1
Cc1ccccc1NC(=O)Cc1nc(CN(C)CC(=O)Nc2cccc(F)c2)cs1,-7
COc1ccccc1CC(=O)Nc1ccc(S(=O)(=O)N2CCCC2)cc1,1
CC(=O)c1sc(NC(=O)CCCc2nc3ccccc3c(=O)[nH]2)nc1-c1ccccc1,-2
COc1cc(S(=O)(=O)N(C)Cc2ccc3c(c2)OCCO3)ccc1NC(C)=O,-4
Cc1cccc(NC(=O)CNC(=O)COC(=O)C2CC2C)c1C (stereo not given),-8
CCCCC[C@@H](O)c1cc2ccccc2c(=O)o1,-8
Cc1ccc(C(=O)NCC(=O)N2CCN(c3cccc(Cl)c3)CC2)s1,3
CCOc1ccccc1-n1c(SC(C)C(=O)NCC2CCCO2)nc2ccccc2c1=O (stereo not given),-6
COc1ccc(S(=O)(=O)Nc2ccc3c(c2)CC(=O)N([C@@H](C)CO)C[C@@H](C)[C@@H](CN(C)Cc2ccccc2)O3)cc1,-1
Cc1cccc(C)c1NC(=O)COC(=O)c1cc(=O)[nH]c2ccccc12,-10
O=C(NC1CCCCCC1)C1CCN(S(=O)(=O)c2c(Cl)cccc2Cl)CC1,-6
COc1ccc(OCc2nnc(SCC(=O)Nc3ccc(C)cc3)o2)cc1,97
CCN(C[C@H]1N[C@@](Cc2ccccc2)(C(=O)OC)[C@H]2C(=O)N(Cc3ccccc3)C(=O)[C@@H]12)C(=O)c1ccccc1,2
CCOC(=O)[C@H]1[C@H]2COc3cc(OC)ccc3[C@@H]2N2C(=O)CN(CC3CCCO3)C(=O)[C@@]12C (stereo not given in full),-14
O=C(NCc1ccccn1)c1cccc(S(=O)(=O)N2CCCCC2)c1,-4
O=C(OCC(=O)N1CCc2ccccc21)C1CCCN1S(=O)(=O)c1ccc(Cl)cc1 (stereo not given),-6
CC(=O)n1cc(CO)c2ccccc21,-8
COc1ccc(-c2nn(-c3ccccc3)cc2C(=O)Nc2cccc(S(=O)(=O)NC3=NCCC3)c2)cc1,4
Cc1ccc(S(=O)(=O)Nc2cccc3c2O[C@H](CN(C)Cc2ccccc2)[C@@H](C)CN([C@H](C)CO)C3=O)cc1,-8
C=CCNC1=C(Cl)C(=O)N(Cc2ccccc2)C1=O,-1
COc1ccccc1OCCC(=O)NNC(=O)c1ccccc1F,-8
CCN(CC(=O)Nc1ccc(OC)cc1)C(=O)Cc1ccc(OC)c(S(=O)(=O)N2CCOCC2)c1,1
CCN(C(=O)COc1ccc(C)cc1OC)c1cccc2ccccc12,1
Cc1cc(C(=O)Nc2ccc(Cl)c(S(=O)(=O)N3CCOCC3)c2)c2ccccc2n1,41
COc1ccc(Cl)cc1C(=O)NNC(=O)c1cccs1,-10
COc1cc([C@H]2OC[C@H]3[C@@H]2CO[C@@H]3c2ccc(O[C@H]3O[C@H](CO)[C@@H](O)[C@H](O)[C@H]3O)c(OC)c2)ccc1O[C@@H]1O[C@H](CO)[C@@H](O)[C@H](O)[C@H]1O,-3
COc1ccccc1-c1sc2cc3c(cc2c1C#Cc1cncn1C)OCO3,97
CC(=O)NC(c1cccs1)c1cc(Cl)c2ccccc2c1O (stereo not given),18
Cc1nn(C2CCS(=O)(=O)C2)c(C)c1CN(C)C(=O)c1ccccc1 (stereo not given),-4
COc1ccc(C(=O)N[C@H](C(=O)NCc2ccccc2)C(C)C)cc1,-5
Cc1ccccc1-c1nc(S(=O)(=O)c2ccccc2)c(NCCCN2CCOCC2)o1,-2

The list goes on.
SMILES,Mtb bLac sens
CCN1C(=O)C(=O)N(CC(=O)Nc2cccc(C(F)(F)F)c2)C1=O,-4
COc1cc(C)ccc1OCC(=O)NC1CCCCCC1,8
O=C(Nc1cccc(S(=O)(=O)N2CCCCC2)c1)C1=NN(c2ccccc2)C(=O)CC1,-5
Cc1csc(=O)n1CC(=O)OCC(=O)NC(C)c1ccc(F)cc1 (stereo not given),5
CC1(c2ccccc2)NC(=O)N(CC(=O)N2CCN(S(=O)(=O)c3c(F)cccc3F)CC2)C1=O (stereo not given),-1
CC(C)Cn1nc(C(=O)Nc2nnc(C3CC3)s2)c2ccccc2c1=O,12
CC1CCN(C(=O)COC(=O)CCC(=O)c2ccc(F)cc2)CC1,-2
CC[C@@]1(C(=O)OC)N[C@H](CN(C)C(C)=O)[C@@H]2C(=O)N(C)C(=O)[C@@H]21,2
O=C(OCCN1CCCCC1)c1c[nH]c2ccccc12,-5
CCN(CC(=O)Nc1ccc2c(c1)OCCO2)C(=O)/C=C/c1cccc(C(F)(F)F)c1,-11
CCN(CC)S(=O)(=O)c1ccc(/C=C/C(=O)OCC(=O)NCc2ccco2)cc1,0
COc1ccccc1C(=O)NCCC(=O)Nc1ccc(S(=O)(=O)N2C(C)CCCC2C)cc1 (stereo not given),51
C[C@H](CO)N1C[C@H](C)[C@@H](CN(C)S(C)(=O)=O)Oc2ccc(NC(=O)NC3CCCCC3)cc2C1=O,6
CCOC(=O)[C@H]1[C@H]2COc3ccc(Cl)cc3[C@@H]2N2C(=O)[C@@H](CO)NC(=O)[C@@]12C,1
O=C(NCc1cccnc1)/C(=C/c1ccc([N+](=O)[O-])cc1)NC(=O)c1ccccc1,5
O=C(NCC1CCCO1)C(=O)N/N=C/c1cccc(Cl)c1 (stereo not given),?
COc1ccc(NC(=O)CCOc2ccc(C)cc2)cc1S(=O)(=O)N1CCOCC1,-5
COc1ccc(C(CNC(=O)CNC(=O)c2cccc(Cl)c2)N2CCCC2)cc1 (stereo not given),4
O=C(COC(=O)Cc1ccccc1)NNC(=O)c1ccc([N+](=O)[O-])cc1,0
COC(=O)/C=C1\N/C(=N/c2nc(C)c3cc(OC)ccc3n2)NC1=O,-2
O=C(CCSc1ccc(F)cc1)NNC(=O)c1ccccc1Cl,-5
COc1ccc([C@H]2CC(=O)C=C(c3cccc(Cl)c3O)C2)cc1OC,5
COc1cc(C(=O)NCC(=O)Nc2c(C)cccc2C)ccc1OCc1ccccc1,-6
Cc1cc(NS(=O)(=O)c2ccc(NC(=O)c3ccc(F)cc3)cc2)nc(C)n1,-1
Cc1cc2nc(NCCCO)n(CC(=O)c3cc(C(C)(C)C)c(O)c(C(C)(C)C)c3)c2cc1C,100

Three compounds out of the list, ordered by formula weight, lowest first:
SMILES,Mtb bLac sens
CC[C@@]1(C(=O)OC)N[C@H](CN(C)C(C)=O)[C@@H]2C(=O)N(C)C(=O)[C@@H]21,2
CCN1C(=O)C(=O)N(CC(=O)Nc2cccc(C(F)(F)F)c2)C1=O,-4
CC(C)Cn1nc(C(=O)Nc2nnc(C3CC3)s2)c2ccccc2c1=O,12

More records follow:
SMILES,Mtb bLac sens
O=C(CC1C(=O)Nc2ccccc2N1CC(=O)N1CCCC1)Nc1ccc(Br)cc1 (stereo not given),-1
Cc1ccc(CNc2nc(C)cs2)cc1,-5
CCN(CC)C(=O)COC(=O)C1CCN(S(=O)(=O)c2ccc3c(c2)OCCO3)CC1,-7
ClC(Cl)(Cl)c1ccccc1,-4
C#CCOCCOCCOCCNc1nc(N2CCN(C(=O)[C@H]([C@@H](C)CC)n3cc(CCCN=C(N)N)nn3)CC2)nc(N2CCN(C(=O)[C@H](CCCCN)n3cc(CC(C)O)nn3)CC2)n1 (stereo not given in full),-6
CC(C)Cn1c(SCC(N)=O)nnc1-c1cccc(S(=O)(=O)N2CCOCC2)c1,5
COc1cc(OC)cc(C(=O)NNC(=O)CCNC(=O)c2ccc(Br)cc2)c1,-4
CC(C)c1ccccc1NC(=O)CSc1n[nH]c(=O)n1C1CC1,-7
Cc1ccccc1N1CCN(C(=O)[C@@H]2CCCN2C2=NS(=O)(=O)c3ccccc32)CC1,3
COc1ccc(NC(=O)c2cc([N+](=O)[O-])ccc2N2CCCCC2)cc1OC,-7
C=CC[C@@H](CC(=O)N[C@H](CO)Cc1ccccc1)C(=O)N[C@@H](COC(=O)[C@@H](CC=C)Cc1ccc(F)cc1)Cc1ccccc1,4
CSc1ccc(/C=C/C(=O)OCC(=O)N2CCN(S(=O)(=O)c3ccc(C)cc3C)CC2)cc1,1
CC(=O)Nc1nc2cc(N)ccc2s1,-1
CCC(=O)NC(c1cc(Cl)c2ccccc2c1O)C(C)C (stereo not given),4
CCCN(CC(=O)Nc1ccccc1OC)C(=O)Cc1ccc2c(c1)CCC2,-3
O=C(CN1C(=O)NC2(CCCC2)C1=O)NCCc1ccc(Cl)cc1Cl,-7
COc1ccccc1CN(C)S(=O)(=O)c1cccs1,-25
Cc1ccc([C@@H]2CC=C(C(=O)O)[C@H](c3ccc(Cl)cc3)N2S(=O)(=O)c2ccc(C)cc2)cc1,-10
Cn1c(=O)c2c(ncn2CC(=O)OCC(=O)NNC(=O)c2ccc(Cl)cc2)n(C)c1=O,-8
COCCn1c(=O)[nH]c2cc(C(=O)N3CCN(c4ccc(OC)cc4)CC3)ccc2c1=O,10
CCOC(=O)c1c(C)[nH]c(C(=O)OCC(=O)N(C)c2c(N)n(Cc3ccccc3)c(=O)[nH]c2=O)c1C,-6
COC(=O)C1=C(c2ccc(C(C)=O)cc2)C[C@@H]2CC[C@H]1N2C(=O)NCCO,-5
O=S(=O)(c1ccc(F)cc1)N1CCN(Cc2cc3c(cc2Br)OCCO3)CC1,10
CN(CC(=O)Nc1ccccc1Br)C(=O)c1cc(Cl)nc2ccccc12,-14
COC(=O)c1c(C)[nH]c(C(=O)C(C)OC(=O)c2cnc(C)cn2)c1C (stereo not given),4

Reprinted at random: 4 entries already listed
SMILES,Mtb bLac sens
COc1ccc2cc(C3(C)NC(=O)N(CC(=O)N4CCCCC4)C3=O)ccc2c1 (stereo not given),-8
CCN(CC)S(=O)(=O)c1ccc(/C=C/C(=O)OCC(=O)NCc2ccco2)cc1,0
CC(C)Cn1nc(C(=O)Nc2nnc(C3CC3)s2)c2ccccc2c1=O,12
COc1cc(OC)cc(C(=O)NNC(=O)CCNC(=O)c2ccc(Br)cc2)c1,-4

Compounds above that have bromine:
SMILES,Mtb bLac sens
O=C(CCc1nc2sc3c(c2c(=O)[nH]1)CCCC3)NCC(=O)Nc1ccccc1Br,-1
O=C(CC1C(=O)Nc2ccccc2N1CC(=O)N1CCCC1)Nc1ccc(Br)cc1 (stereo not given),-1
COc1cc(OC)cc(C(=O)NNC(=O)CCNC(=O)c2ccc(Br)cc2)c1,-4
O=S(=O)(c1ccc(F)cc1)N1CCN(Cc2cc3c(cc2Br)OCCO3)CC1,10
CN(CC(=O)Nc1ccccc1Br)C(=O)c1cc(Cl)nc2ccccc12,-14

(next part)
SMILES,Mtb bLac sens
Cc1nn(-c2ccccc2)c(N)c1C1(O)C(=O)Nc2ccccc21 (stereo not given),-2
Cc1ccc(CNC(=O)c2ccc(Cl)c(S(=O)(=O)N3CCCCC3)c2)cc1,3
CN(C)C(=O)CSc1nc(-c2cccs2)c(-c2cccs2)[nH]1,1
COc1ccccc1-c1csc2ncnc(Sc3nnnn3C)c12,-7
C[C@]12C(=O)N(c3ccc(Br)cc3)C(=O)N1[C@H]1c3ccccc3OC[C@@H]1[C@H]2c1ccccc1,53
O=C(Cc1ccc(Br)cc1)OCC(=O)c1ccc[nH]1,39
COc1cc(CC(=O)NCC(C)(C)N2CCOCC2)cc(OC)c1OC,-9
COc1ccc(S(=O)(=O)N2CCOCC2)cc1NC(=O)CCc1cc(OC)c(OC)c(OC)c1,-9
C/C=C(\C)C(=O)O[C@H](c1cc2ccc(=O)oc2cc1OC)[C@@H](O)C(C)(C)O,-4
CCOC(=O)c1ccc(NC(=O)c2nc[nH]c2C(=O)NCCCNC(=O)c2[nH]cnc2C(=O)Nc2ccc(C(=O)OCC)cc2)cc1,-3

Source: PubChem (Southern Research Specialized Biocontainment Screening Center)
